Source: PubChem BioAssay
PKD1 inh = inhibitors of human PKD1 kinase, biochemical, fluorescence polarization | PKD1 kinase fluorescence polarization assay | inhibition, %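 (about 10 µM by stock and volumes)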 | 0.056% of 200,000 active | Serine/threonine-protein kinase D1 (Homo sapiens), Q15139;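 active = inhibition of 50% or more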;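 also: controls were vehicle for no effect and a reference inhibitor for full effect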
Insulin prom inh = inhibitors of insulin promoter-driven GFP, primary screen, imaging, TRM-6 cells (human fetal islet line), eGFP reporter, cell count; reporter expression induced with tamoxifen; inhibition, % at 2 µM; 0.9% of 130,000 active;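 active = inhibition above the mean plus 3 SD, with well images judged a real hit on visual review, cut at about 60% in these data, passing the limit was not always enough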
HSV augment = enhancers of HSV replication in host cells, fold increase, host cell viability | HSV replication augmentation in cells | 0.005% of 220,000 active | maximum fold increase;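 active = peak rise of 1.5-fold or more in the series; tested in PC3 cells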;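 also: first round at 10 µM; read as green reporter fluorescence; hits show the peak of a series up to 25 µM; 1 = signal of infected wells without compound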
RGS16-Gao HTS = modulators of RGS16 binding to Galphao, primary screen, biochemical, human proteins, multiplexed bead flow cytometry; bead-based flow cytometry RGS16-Galphao binding, fluorescence; actives lie on both sides; binding response (% of control), % at 10 µM; 0.38% of 220,000 active; AID 1441, 2008;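 active = below 25% or above 175%, edge rows of some plates excepted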;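 also: Galphao activated by GDP with aluminum fluoride before binding; 100% = wells without compound and 0% = beads without RGS; some results beyond the cut were filed as inactive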
Target sequence (O15492 whole entry, looked up): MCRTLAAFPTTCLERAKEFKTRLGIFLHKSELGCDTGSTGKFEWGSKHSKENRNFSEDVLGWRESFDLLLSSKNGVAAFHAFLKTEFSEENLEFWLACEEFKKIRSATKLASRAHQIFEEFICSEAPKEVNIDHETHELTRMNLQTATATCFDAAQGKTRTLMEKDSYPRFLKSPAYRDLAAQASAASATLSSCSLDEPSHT
Target sequence (P09471 whole entry, looked up): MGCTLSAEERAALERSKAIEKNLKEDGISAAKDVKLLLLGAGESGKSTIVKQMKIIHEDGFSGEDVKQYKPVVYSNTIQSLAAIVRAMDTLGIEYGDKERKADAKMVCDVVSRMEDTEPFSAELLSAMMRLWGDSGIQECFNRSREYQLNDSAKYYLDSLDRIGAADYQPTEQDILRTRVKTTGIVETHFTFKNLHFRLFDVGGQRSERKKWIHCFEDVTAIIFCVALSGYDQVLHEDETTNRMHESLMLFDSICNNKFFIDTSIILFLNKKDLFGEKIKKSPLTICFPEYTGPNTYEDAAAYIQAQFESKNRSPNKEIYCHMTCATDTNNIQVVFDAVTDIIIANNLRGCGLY
GALR2 agonist = GALR2 receptor agonists, primary screen, cell-based; AID 803, 2007; GALR2-expressing cells, agonist activation read-out; 0.48% of 140,000 active; Galanin receptor type 2 (Homo sapiens), O43603; activation, %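 (tested at 5 µM)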;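 active = above mean plus 3 SD of all compounds, about 5% in these data, not always enough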;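 also: 0% = vehicle buffer wells and 100% = reference agonist at full effect; tested in CHO reporter cells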
Target sequence (O43603 whole entry, looked up): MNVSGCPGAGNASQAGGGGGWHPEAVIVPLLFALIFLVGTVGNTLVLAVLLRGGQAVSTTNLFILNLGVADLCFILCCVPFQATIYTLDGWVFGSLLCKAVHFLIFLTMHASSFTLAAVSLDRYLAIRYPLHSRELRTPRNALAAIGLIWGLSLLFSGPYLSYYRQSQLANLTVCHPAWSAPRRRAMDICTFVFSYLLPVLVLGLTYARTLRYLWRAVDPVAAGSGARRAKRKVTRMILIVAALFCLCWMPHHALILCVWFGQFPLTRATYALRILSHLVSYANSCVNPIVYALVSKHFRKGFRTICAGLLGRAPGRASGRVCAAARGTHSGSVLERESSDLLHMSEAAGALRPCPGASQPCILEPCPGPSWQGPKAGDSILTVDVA
Insulin prom inh cell count = further read-out of Insulin prom inh, marked with its call; normalized cell count, %; measured here: cell count, toxicity; reference of the scale not given here;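 cells exposed to compound for 48 h; stained nuclei by imaging scaled within each plate; lower means fewer cells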
HSV augment primary fold = second read-out of HSV augment, no call of its own (marks repeat the call); fold increase; compound at 10 µM; measured here: primary screen fold increase 10 uM; tested in PC3 cells;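 GFP signal in the first replicate; 1 = infected wells without compound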
* marks the source's active call; other numbers are inactive results; i = inactive; nt = not tested or not shown.

Sequence of screens: PKD1 inh	Insulin prom inh	Insulin prom inh cell count	HSV augment	HSV augment primary fold	RGS16-Gao HTS	GALR2 agonist
(1) CCOC(=O)C1CCCN(c2cc(NCCCO)c([N+](=O)[O-])c3nonc23)C1 (stereo unspecified)
 : -3	-14	128	i	0.91	98	0.8
(2) O=C(NCCCN1CCOCC1)C1Cc2c(ccc3ccccc23)O1 (stereo unspecified)
 : -6	4	114	i	0.98	106	nt
(3) Cc1nc([N+](=O)[O-])cn1Cc1cccc([N+](=O)[O-])c1
 : 6	nt	nt	i	0.93	97	nt
(4) CCCN(CCC)C(C)C(=O)NCC1(c2ccccc2)CCCC1 (stereo unspecified)
 : -5	-18	88	i	1	100	nt
(5) Cc1cc(C)c2nc(SCC(=O)N3CC(=O)Nc4ccccc43)c(C#N)cc2c1
 : -6	-152	12	nt	nt	94	0.0
(6) CC(Sc1nncn1-c1ccccc1)C(=O)Nc1cccc([N+](=O)[O-])c1 (stereo unspecified)
 : -1	22	69	i	1.1	109	-1.5
(7) Cc1ccc(N=C(NOCc2ccc(Cl)cc2Cl)c2nonc2N)c(C)c1
 : 2	-59	63	i	1.1	106	-1.8
(8) O=C(N/N=C/c1cccs1)c1cncc(Br)c1
 : -2	nt	nt	i	1	103	nt
(9) O=C(/C=C/Nc1ccccc1F)c1ccc(Br)cc1
 : -6	29	109	i	0.91	114	-1.0
(10) Nc1nc(C23CC4CC(CC(C4)C2)C3)[nH]c(=O)n1
 : nt	nt	nt	i	0.61	102	nt
(11) Cc1ccc(CNC(=O)CN(c2cccc([N+](=O)[O-])c2)S(=O)(=O)c2ccccc2)cc1
 : -8	5	98	i	1.1	45	-1.8
(12) COc1ccc2c(c1)nc(SCC(O)c1ccccc1)n2C (stereo unspecified)
 : 2	13	123	i	0.97	111	nt
(13) CCn1c(SCC(=O)Nc2cc(C)on2)nnc1-c1cccnc1
 : -3	18	95	i	1.2	106	-1.5
(14) CCn1c(CSCc2ccc(Cl)cc2)n[nH]c1=S
 : -4	nt	nt	i	1.1	95	nt
(15) O=c1cc2c(nn1Cc1ccccc1)-c1ccccc1CC2
 : -1	-13	86	i	1.1	100	nt
(16) Cc1cc(C[n+]2cc(Cl)ccc2N)c2ncccc2c1
 : nt	nt	nt	i	0.92	92	nt
(17) CC/C(=N\O)c1ccc(O)c(OC)c1
 : -8	9	81	i	0.91	36	-1.7
(18) COc1cc2c(cc1OC)CN(C(=O)c1cccs1)CC2
 : -7	29	124	i	0.96	99	1.2
(19) CCOc1ccccc1CN1CCN(C2CCN(c3ccccc3F)CC2)CC1CCO (stereo unspecified)
 : 6	nt	nt	i	0.83	96	nt
(20) O=C(NC1CC1)c1ccc2c(c1)NC(=O)c1ccccc1S2
 : 2	nt	nt	i	0.96	113	-2.8
(21) COc1cc(OC)cc(C(=O)N2CCN(Cc3ccccc3[N+](=O)[O-])CC2)c1
 : 1	33	23	i	0.91	101	nt
(22) C=CCn1c(SCC(=O)NC)nc2sc3c(c2c1=O)CCC3
 : 2	-16	82	nt	nt	102	-0.7
(23) CC(=O)Nc1ccc(S(=O)(=O)N2CCN(CCCOc3cc(C)ccc3C)CC2)cc1
 : -15	27	149	i	0.92	167	-2.6
(24) c1ccc2cc(OCCOCCOc3ccc4ccccc4c3)ccc2c1
 : nt	nt	nt	i	1.1	99	nt
(25) Cc1ccc([N+](=O)[O-])cc1N=C(c1cccc([N+](=O)[O-])c1)N1CCOCC1
 : 0	-32	98	i	0.96	111	-0.9
(26) Cc1cc(C)c(S(=O)(=O)N2CCCOC2CNC(=O)C(=O)NCCc2c[nH]c3ccccc23)c(C)c1 (stereo unspecified)
 : -8	-11	126	i	0.8	105	0.2
(27) CC1CCCC(NC(=O)Cn2cc3c(n2)CCCCC3)C1C (stereo unspecified)
 : -6	nt	nt	i	0.9	113	-0.6
(28) COc1ccc(-c2nc(N)n(C(=O)c3ccco3)n2)cc1
 : 5	-7	114	i	0.95	107	nt
(29) COCCCC1CCN(Cc2nc(Cc3ccccc3Cl)no2)CC1
 : -5	nt	nt	i	0.99	98	nt
(30) O=S(=O)(c1cc(Cl)ccc1Br)N1CCOCC1
 : -10	48	79	i	0.91	108	-0.5

Three compounds from above, arranged by the value under PKD1 inh, low to high:
item	structure	PKD1 inh
15	O=c1cc2c(nn1Cc1ccccc1)-c1ccccc1CC2	-1
21	COc1cc(OC)cc(C(=O)N2CCN(Cc3ccccc3[N+](=O)[O-])CC2)c1	1
28	COc1ccc(-c2nc(N)n(C(=O)c3ccco3)n2)cc1	5

Molecules above containing two or more sulfur atoms:
Sequence of screens: PKD1 inh	Insulin prom inh	Insulin prom inh cell count	HSV augment	HSV augment primary fold	RGS16-Gao HTS	GALR2 agonist
(14) CCn1c(CSCc2ccc(Cl)cc2)n[nH]c1=S
 : -4	nt	nt	i	1.1	95	nt
(22) C=CCn1c(SCC(=O)NC)nc2sc3c(c2c1=O)CCC3
 : 2	-16	82	nt	nt	102	-0.7

(listing goes on)
Sequence of screens: PKD1 inh	Insulin prom inh	Insulin prom inh cell count	HSV augment	HSV augment primary fold	RGS16-Gao HTS	GALR2 agonist
(31) Cc1ccc(-c2nnc(Sc3nc4ccccc4o3)c3ccccc23)cc1
 : -3	nt	nt	i	0.99	111	-2.6
(32) N#Cc1ccc(N2Cc3ccccc3C2=NC(=O)c2cccs2)cc1
 : -10	nt	nt	i	1.1	110	-0.7
(33) COc1ccc(-c2nnn(CC(=O)c3c[nH]c4ccccc34)n2)cc1OC
 : 0	nt	nt	i	1.1	103	-0.2
(34) CCC/C=N/Nc1nc2ccccc2s1
 : 0	16	114	i	1.1	99	nt
(35) COc1cccc(/C=N/NC(=O)C(=O)N2CCCC2)c1OC
 : 2	nt	nt	nt	nt	98	-0.4
(36) CCOc1cc2[nH]c(=S)n(C(C)C)c(=O)c2cc1OCC
 : -4	-20	100	i	0.85	63	-0.7
(37) COCCN1C(=O)c2ccccc2C(C(=O)NCC2CCCO2)C1c1c[nH]c2ccccc12 (stereo unspecified)
 : -7	7	92	i	0.97	100	-1.0
(38) Cc1cc(C(=O)Nc2cc(C)n(Cc3ccc(Cl)cc3)n2)no1
 : -12	nt	nt	i	1.1	103	-1.2
(39) Cn1cnnc1SCC(=O)c1ccco1
 : 0	27	153	i	1	96	-1.1
(40) CCOC(=O)c1c(C)[nH]c(C(=O)NCc2ccco2)c1C
 : -1	nt	nt	i	1	102	nt
(41) COc1cc(C(=O)Oc2cccc(C=O)c2)cc(OC)c1OC
 : 0	-27	152	i	0.86	107	-1.7
(42) COC(=O)c1[nH]nc2c1C(=O)N(C1CCCCC1)C2=O
 : 7	nt	nt	i	0.94	99	0.2
(43) COc1ccc(/C=N/N=C2/NC(=O)C(c3ccccc3)S2)c(OC)c1 (stereo unspecified)
 : 3	21	102	i	0.9	91	-2.1
(44) CC1CC(C)CN(CCCNC(=O)COc2cc(=O)n(C)c3ccccc23)C1 (stereo unspecified)
 : 0	-53	174	i	0.85	98	-0.1
(45) Oc1ccc(Br)cc1-c1nc2cnccn2c1NC1CCCC1
 : 2	15	102	i	0.99	98	-1.5
(46) N#CNC(=Nc1cccc(F)c1)SCc1cccc(F)c1
 : -11	-3	128	i	0.81	97	-1.4
(47) Cc1cc(C)n(CC(=O)c2cccc([N+](=O)[O-])c2)n1
 : 0	nt	nt	i	1	100	nt
(48) CCCc1oc(C(=O)O)cc1CN
 : 3	27	141	i	0.75	98	-1.2
(49) CC(O/N=C/c1ccccc1OC(F)F)C(=O)Nc1cccc(S(=O)(=O)N2CCOCC2)c1 (stereo unspecified)
 : -11	14	105	i	0.54	154	-1.2
(50) CC1CCCN(C(=S)SCC(=O)c2cc(Br)cc(Br)c2O)C1 (stereo unspecified)
 : -5	nt	nt	i	0.91	110	nt
(51) Cc1cccc(C)c1Nc1nnc(SCC(=O)Nc2sccc2C#N)s1
 : -5	46	109	nt	nt	19	-1.6
(52) O=C(O)/C=C/c1ccc(S(=O)(=O)N2CCN(CCN3C(=O)C4C5C=CC(C5)C4C3=O)CC2)cc1 (stereo unspecified)
 : nt	nt	nt	i	0.79	99	nt
(53) Cc1ccc(C)c(NC(=O)CN(C)C(=O)c2cccc(S(=O)(=O)N(C)C)c2)c1
 : -5	-22	34	i	1	95	nt
(54) Cc1nn(C)c2ncc(C(N)=O)c(Oc3cccnc3)c12
 : nt	nt	nt	i	1	105	nt
(55) CC(C)CCNC(=O)NC(=O)CSc1nnc(COc2ccccc2Cl)o1
 : 0	5	200	i	0.88	104	0.3
(56) CSc1nc2ccc(Cl)cc2[nH]1
 : -10	57	141	i	0.9	104	-2.9
(57) C#CCOCCOCCOCCNc1nc(N2CCN(C(=O)[C@H]([C@@H](C)CC)n3cc(CCCN=C(N)N)nn3)CC2)nc(N2CCN(C(=O)[C@H](Cc3ccc(O)cc3)n3cc(CCO)nn3)CC2)n1
 : -8	-9	78	i	0.82	77	-1.6
(58) Cc1cccc(NC(=S)N(CCCN2CCOCC2)Cc2ccco2)c1
 : -4	nt	nt	i	0.96	93	nt
(59) Cc1ccc(NC(=O)CSc2ncn(-c3ccccc3)n2)cc1C
 : -7	-6	144	i	0.73	107	-1.8
(60) CN1/C(=C\C(=O)COC(=O)CNC(=O)c2ccccc2F)C(C)(C)c2ccccc21
 : -2	nt	nt	i	1.1	100	-1.3

(further entries)
Sequence of screens: PKD1 inh	Insulin prom inh	Insulin prom inh cell count	HSV augment	HSV augment primary fold	RGS16-Gao HTS	GALR2 agonist
(61) CS(=O)(=O)c1ccc(Cl)c(NC(=O)C2CC(=O)N(Cc3ccccc3)C2)c1 (stereo unspecified)
 : 7	45	158	i	0.81	104	-0.7
(62) O=C1[C@@H]2C(c3cccnc3)=NO[C@@H]2C(=O)N1c1ccc(Cl)cc1Cl
 : nt	nt	nt	i	1.1	101	nt
(63) COC(=O)C(CCCCNC(=O)c1ccc([N+](=O)[O-])cc1)NC(=O)c1ccc([N+](=O)[O-])cc1 (stereo unspecified)
 : -4	17	84	i	0.95	108	-0.6
(64) O=C(CC1CC2CCC1C2)Nc1nc(-c2ccccn2)cs1 (stereo unspecified)
 : -3	nt	nt	i	1	86	nt
(65) CS(=O)(=O)N(CC(=O)NCc1ccccc1)C1CCCCC1
 : 3	12	122	i	0.96	105	-2.2
(66) COc1ccccc1CNC(=O)C1CCN(S(=O)(=O)c2cccc3cccnc23)CC1
 : -4	nt	nt	i	0.86	99	-0.4
(67) CN(C)C(=O)C1C2NC(=S)N(c3cccc(Cl)c3)C1(C)Oc1ccc(Cl)cc12 (stereo unspecified)
 : -4	-7	124	i	0.89	97	nt
(68) O=C(CS(=O)c1ccc(C(F)(F)F)cc1[N+](=O)[O-])Oc1ccc(Cl)cc1 (stereo unspecified)
 : 0	62	77	i	0.76	102	-1.5
(69) COc1cc(/C=C/C(=O)O)ccc1OCc1ccccc1C#N
 : -10	20	91	i	1.1	106	0.9
(70) Cc1ccc(CN2C(=O)c3ccccc3NC2c2ccccn2)cc1 (stereo unspecified)
 : 0	-43	63	i	1	104	nt
(71) CCc1nc2c(cnn2-c2ccc(F)cc2)c(=O)n1-c1ccc(N2CCC(C)CC2)cc1
 : -4	nt	nt	i	0.95	120	-0.2
(72) COc1ccc(C(=O)N2CCN(c3cnn(-c4ccccc4)c(=O)c3Cl)CC2)cc1
 : 2	0	119	i	1.1	91	nt
(73) CCOC(=O)C1CCCN(C(=O)COc2ccc(S(=O)(=O)N(CC)c3ccccc3)cc2)C1 (stereo unspecified)
 : 3	-50	166	nt	nt	102	nt
(74) Cc1ccnc(NS(=O)(=O)c2ccc(Oc3ccccc3)cc2)c1
 : -3	34	121	i	0.94	109	-1.2
(75) N#CCCN(Cc1ccccc1)C(=O)c1cccs1
 : nt	nt	nt	i	1	105	nt
(76) O=C(Nc1ccccc1)C1=C(c2ccccc2)S(=O)(=O)CCS1(=O)=O
 : 2	-257	7	i	0.67	91	nt
(77) O=C(/C=C\c1ccccc1)Oc1cccc2cccnc12
 : -1	-67	47	i	0.7	99	nt
(78) COc1ccc(NC(=O)COc2ccccc2C#N)c(S(=O)(=O)N2CCCCC2)c1
 : -2	nt	nt	i	0.99	94	-0.9
